BJeLR lethal – BJeLR cell viability loss | BJeLR (HRASV12) viability, CellTiter-Glo ATP luminescence, 48 h; reference of the scale not given here | inhibition, % (concentration not given with the values) | 300,000 tested, 0.17% active | AID 1554;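 active means replicate mean above 50%; inconclusive means above 50% but judged a plate artefact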;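 further: 50 nL library stock added to about 25 µL; numbers are from one replicate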
Sa ugtP lethal – kills S. aureus RN4220 lacking UgtP. S. aureus RN4220 ugtP deletion, OD600 growth, 16 h; some inactives read as strong as hits. growth inhibition, % (no concentration beside the values). 330,000 tested, 0.54% active. AID 1259309;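 active means z-score under -3 and OD600 up to 0.15 on both plates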;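 further: plate controls were untreated wells for no effect and antibiotic for full effect; wells of about 80 µL received 100 nL stock; the first replicate is given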
PrP UTR inh – suppresses PrP 5' UTR mRNA reporter expression; AID 488862; 340,000 tested, 0.35% active; inhibition, % (no concentration beside the values); cell-based PrP 5' UTR mRNA reporter, plate reader;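 active means every replicate at 50% or more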;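 further: 0 = median of the neutral control wells; tested in H4 reporter cells; numbers are from one replicate; inactives centre near -14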
Mtb hypoxia rep – reduces hypoxia-regulated biosensor signal in M. tuberculosis | fluorescence inhibition, % (concentration not given with the values) | 300,000 tested, 0.1% active | AID 1159583 | M. tuberculosis hypoxia-regulated fluorescent reporter, fluorescence;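 active means 35 to 45% if threefold the growth effect, above 45% if 1.5-fold the growth effect; inactive means the rest, general growth blockers included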;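 further: wells of about 50 µL received 100 nL stock; 0% = vehicle wells and 100% = reference inhibitor wells; whole bacteria with a GFP reporter of the hypoxia response; strong numbers were not always called active; many hits fall short of the cut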
Autofluor counter – flagged as autofluorescent in microsphere protease counterscreen; AID 624483; 360,000 tested, 3.1% active; compound autofluorescence counterscreen, microsphere flow cytometry; stronger effect = higher value; fluorescence intensity (concentration not given with the values);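 active means at least 3 SD above the mean of all compounds, about 16000 in these data; inconclusive means too few beads counted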;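 further: 100 nL of 1 mM stock went into each well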
RN4220 kill – S. aureus RN4220 growth inhibition | OD600, 16 h | inhibition, % (no concentration beside the values) | 330,000 tested, 0.33% active | AID 1259311;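 active means z-score of -3 or lower and OD600 up to 0.18 on both plates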;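 further: plate controls were untreated cells for no effect and reference antibiotic for full effect; stock transfer was 100 nL into about 80 µL; one replicate is shown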
Mtb hypoxia rep growth – second read-out of Mtb hypoxia rep, no call of its own (marks repeat the call); growth inhibition, %; measured here: M. tuberculosis growth (absorbance);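 0% = vehicle and 100% = reference antibiotic; read after six days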
* = called active by the depositor; u = inconclusive; x = no result given.

mol	BJeLR lethal	Sa ugtP lethal	PrP UTR inh	Mtb hypoxia rep	Mtb hypoxia rep growth	Autofluor counter	RN4220 kill
Cn1c(SCC(=O)NCc2ccco2)nc2ccccc2c1=O	-12	3	-16	4	8	10267	0.3
NC(=O)c1ccccc1OCC(=O)N1CCC(Cc2ccccc2)CC1	x	-2	12	-6	-4	u	-0.7
Cn1c(=O)c2c(ncn2CCC(=O)NN=Cc2ccccc2)n(C)c1=O	x	8	x	8	-3	x	2.3
Cc1cc(NC(=O)COC(=O)CCCOc2ccc(Cl)cc2C)no1	-5	2	-17	x	x	3688	9.6
O=C(NCCc1c[nH]c2ccccc12)c1cc(S(=O)(=O)N2CCCCC2)ccc1N1CCOCC1	-4	4	-25	x	x	4428	3.2
O=C(O)c1ccc(CSCc2ccccc2F)o1	0	-2	-22	x	x	2757	-3.4
CNc1ccc2oc(CC3O[C@@]4(CCC3C)OC(C(C)C(=O)c3ccc[nH]3)C(C)CC4C)nc2c1C(=O)O (stereo not given in full)	x	100*	x	x	x	x	96*
COc1cc(C(=O)NC2CC3CCCC(C2)N3CC(=O)Nc2ccccc2)cc(OC)c1OC (stereo not given)	-5	-1	-11	14	6	4137	4.9
CN(C)S(=O)(=O)c1ccc(N2CCCC2)c(C(=O)NCCc2ccc(F)cc2)c1	6	5	-17	0	1	4997	2.3
CCn1c(SCC(=O)Nc2ccc(OCc3ccccc3)cc2)nnc1-c1ccco1	2	9	-20	3	8	4233	5.3

More records:
mol	BJeLR lethal	Sa ugtP lethal	PrP UTR inh	Mtb hypoxia rep	Mtb hypoxia rep growth	Autofluor counter	RN4220 kill
Nc1nc(-c2ccccc2)c(-c2ccccc2)n1N	-4	-4	-8	-1	4	3550	1.8
Cc1cc(NC(=O)CSc2ccc3nnc(-c4ccccc4)n3n2)no1	1	10	-16	0	1	10524	-1.8
COc1ccc(C(=O)Nn2cnnc2)c(OC)c1	-6	4	-24	3	0	21828*	2.1
Cn1nccc1C(=O)Nn1cnnc1	-1	-3	-11	4	-5	3385	3.4
Cc1ccccc1C(=O)NC1CC2CCCC(C1)N2Cc1ccc(Cl)cc1 (stereo not given)	-10	5	-12	12	11	3434	-1.0
O=C(CNC(=O)c1ccc(Br)o1)NCC1CCCCC1	x	3	0	x	x	6200	1.2
C=CCn1c(O)c(/C(C)=N/N2CCN(C)CC2)c(=O)[nH]c1=O	-2	6	-8	4	-10	3340	0.8
COc1ccc(C2=NOC(C(=O)NC(C)(C)C)C2)cc1 (stereo not given)	7	3	1	12	7	22564*	0.6
COc1ccc(CN2CCN(CC(O)Cn3c4ccccc4c4ccccc43)CC2)cc1 (stereo not given)	9	-25	2	-18	-17	2437	-6.5
CCn1c(COc2ccc(C)cc2)nnc1SCC(=O)Nc1cc(OC)ccc1OC	-6	-12	-17	13	6	22615*	3.1

Following part:
mol	BJeLR lethal	Sa ugtP lethal	PrP UTR inh	Mtb hypoxia rep	Mtb hypoxia rep growth	Autofluor counter	RN4220 kill
O=C(/C=C\Nc1ccccn1)c1ccccc1	4	-1	40	x	x	4343	6.3
COc1ccc(-c2ccc3c(c2)S(=O)(=O)c2cccc(C(=O)N4CCN(c5ccc(Cl)cn5)CC4)c2C3=O)cc1OC	x	0	-7	13	3	4255	1.5
COc1ccc(CC(=O)NN=Cc2cc(Br)cs2)cc1OC	x	5	x	14	15	x	5.1
O=C(Nc1ccc([N+](=O)[O-])cc1)c1cc(-c2ccccn2)nc2c(Cl)cccc12	-1	4	-4	3	-2	4512	6.4
CCN(CC(=O)Nc1ccc(NC(C)=O)cc1)C(=O)c1cc(S(=O)(=O)N2CCCCCC2)ccc1OC	-10	-2	-29	-11	4	5911	-1.1
CN(C)/C=C(/C(=O)c1ccc(F)cc1)S(=O)(=O)c1ccc(F)cc1	-1	x	-25	x	x	4823	x
COc1ccccc1C(CNC(=O)CNC(=O)c1cccc(Cl)c1)N1CCCC1 (stereo not given)	x	4	-24	-9	-2	u	2.9
Cc1[nH]c2ccccc2c1C(=O)CN1CCC2(CC1)OCCO2	-9	2	-25	x	x	3587	1.0
CCCCNC(=S)N(C)/N=C/c1ccc(OCc2ccc(C(=O)OC)cc2)c(OC)c1	1	x	4	x	x	2036	x
Cc1cc(NC(=O)Nc2ccc(Cl)cc2)n(C(C)(C)C)n1	0	13	-26	-3	0	4839	1.8

Next structures:
mol	BJeLR lethal	Sa ugtP lethal	PrP UTR inh	Mtb hypoxia rep	Mtb hypoxia rep growth	Autofluor counter	RN4220 kill
CC(C)Oc1ccccc1OCCN(C)C	-3	4	-18	17	2	2401	4.9
C/C(=N\NC(=O)c1ccc(N/N=C(\C)c2ccc(O)cc2)cc1)c1ccc(O)cc1	4	x	-30	x	x	5882	x
O=C(NCCN1CCOCC1)c1cc(-c2cccs2)nc2ccccc12	-7	-1	-1	1	1	5817	1.5
O=C(COC(=O)c1cccnc1Cl)NCC1CCCO1 (stereo not given)	-24	5	-34	17	10	4317	4.9
COc1cccc(CN2CC(C(=O)NC3(c4ccccc4)CC3)CCC2=O)c1 (stereo not given)	-13	10	-4	6	-1	5327	1.9
O=S(=O)(Nc1cccc(-c2cn3cccnc3n2)c1)c1ccc(-c2ccccc2)cc1	2	-4	-5	x	x	2188	0.7
CCN1CCN(C(=O)CCc2nc3ccccc3c(=O)[nH]2)CC1	-1	8	-17	x	x	2385	0.9
O=C(O)c1cnn2c1NC(c1ccc(F)cc1)CC2C(F)(F)F (stereo not given)	2	6	-14	x	x	3044	1.5
c1coc(-c2nc3nc4ccccc4nc3n2-c2ccc3c(c2)OCCO3)c1	x	7	-8	x	x	3646	15
C1CCC2(CC1)OCC1(CO2)COC2(CCCCC2)OC1	4	5	-23	0	0	15528	1.4

(listing goes on)
mol	BJeLR lethal	Sa ugtP lethal	PrP UTR inh	Mtb hypoxia rep	Mtb hypoxia rep growth	Autofluor counter	RN4220 kill
COc1ccc2ccccc2c1C=NNC(=O)c1cc(C)[nH]n1	x	2	x	-6	6	x	-0.4
CCOC(=O)C1CCN(S(=O)(=O)c2ccc(C)c(C(=O)NC3CCCCC3)c2)CC1	5	4	-1	0	0	5904	0.4
CCc1nc(C)ccc1OCC(=O)NCCCN(C)C	x	-6	11	-4	-2	22619*	-0.2
Cn1cc(C(=O)NCc2ccc(Cl)cc2)c(=O)c2cc(S(=O)(=O)N3CCOCC3)ccc21	3	-4	-2	9	23	6139	-1.0
Cc1cnn(C(=S)NCc2ccco2)c1	3	-3	-24	4	3	8913	8.0
CCCCC(NC(=O)CCc1c(C)c2cc3c4c(oc3c(C)c2oc1=O)CCCC4)C(=O)O (stereo not given)	-2	5	9	6	-3	3243	8.0
CCOC(=O)N1CCN(CC(O)COCc2ccc(OC)c(OC)c2)CC1 (stereo not given)	10	8	-14	2	4	2643	3.5
O=C(Nc1cccn(Cc2c(Cl)cccc2Cl)c1=O)C1CC1	-4	-1	-5	9	16	4172	5.9
Cc1occc1C(=O)Nc1nccs1	4	4	-26	x	x	2786	0.9
Cc1ccc(C(=O)N/C(=C\c2cn(S(=O)(=O)N(C)C)c3ccccc23)C(=O)NCCCn2ccnc2)cc1	-7	0	-5	-9	-2	5787	0.7

Other structures:
mol	BJeLR lethal	Sa ugtP lethal	PrP UTR inh	Mtb hypoxia rep	Mtb hypoxia rep growth	Autofluor counter	RN4220 kill
COc1ccc(OC)c(NC(=O)Cn2c(CCC(=O)O)ccc2-c2ccccc2)c1	-1	14	-3	6	4	2031	6.1
CCOC(=O)Cc1csc(NC(=O)c2c(O)c3c(n(CC(C)C)c2=O)CCCC3)n1	1	24	-32	4	10	5177	-3.7
CCOC(=O)C1=C(C)OC(N)=C(C#N)C1c1cccs1 (stereo not given)	-6	0	-80	11	-4	4194	8.5
O=C(Nc1nnc(-c2ccncc2)s1)C1CCCO1 (stereo not given)	2	-1	-9	-5	-2	16579*	4.5
CCc1cccc(N(C(=O)c2csnn2)C(C(=O)NC(C)(C)C)c2ccccn2)c1 (stereo not given)	0	2	-21	2	-5	3319	0.2
Cc1ccc(NC(=O)Nc2ccc3oc(C)nc3c2)cc1	-1	7	-111	x	x	4168	-2.7
COC(=O)C1CCN(Cc2cc(=O)oc3cc(C)c(Cl)cc23)CC1	6	6	-22	0	3	3932	2.6
Cc1ccc(C)c(OCc2cc(C(=O)N3CCOCC3)no2)c1	4	13	-56	16	0	3996	4.0
CC(=O)N1CCN(C(=O)c2ccc3oc(CCCc4ccccc4)nc3c2)CC1	2	4	-12	2	1	6443	1.1
Cc1ccccc1OCCNC(=O)/C=C/c1ccc([N+](=O)[O-])cc1	-10	-2	-28	2	12	2009	1.3

No new results follow: an excerpt of the list.
mol	BJeLR lethal	Sa ugtP lethal	PrP UTR inh	Mtb hypoxia rep	Mtb hypoxia rep growth	Autofluor counter	RN4220 kill
COC(=O)C1CCN(Cc2cc(=O)oc3cc(C)c(Cl)cc23)CC1	6	6	-22	0	3	3932	2.6
Cc1ccc(C)c(OCc2cc(C(=O)N3CCOCC3)no2)c1	4	13	-56	16	0	3996	4.0
CC(=O)N1CCN(C(=O)c2ccc3oc(CCCc4ccccc4)nc3c2)CC1	2	4	-12	2	1	6443	1.1
Cc1ccccc1OCCNC(=O)/C=C/c1ccc([N+](=O)[O-])cc1	-10	-2	-28	2	12	2009	1.3

Going on with the list.
mol	BJeLR lethal	Sa ugtP lethal	PrP UTR inh	Mtb hypoxia rep	Mtb hypoxia rep growth	Autofluor counter	RN4220 kill
O=C(CCNS(=O)(=O)c1ccc(Br)cc1)N1CCCCCCC1	1	12	-5	1	0	u	7.3
Clc1ccccc1-c1nc(/C=N/N2CCOCC2)c2ccccn12	-8	x	-14	x	x	4434	x
Nc1nc(COC(=O)C2CC(=O)N(Cc3ccccc3)C2)nc(Nc2ccccc2)n1 (stereo not given)	x	-4	-6	4	15	3582	-2.3
CNC(=O)C(=O)NCC1OCCCN1S(=O)(=O)c1ccc2c(c1)OCCO2 (stereo not given)	-6	x	-1	x	x	4551	x
Cc1cc(C(=O)CSc2nnc(-c3ccco3)o2)c(C)n1Cc1ccco1	28	5	-21	x	x	3800	-2.8
CC1=NN(c2ccc(F)cc2)C(=O)C1C(c1cccc(O)c1)c1c(C)[nH]n(-c2ccc(F)cc2)c1=O (stereo not given)	1	13	-8	x	x	2827	-4.5
COCCNC(=O)c1cnn2c(C(F)(F)F)cc(-c3ccc4c(c3)OCO4)nc12	9	-6	-23	1	15	10101	-2.8
COc1cc(OC)nc(NC(=O)CCl)n1	-6	7	-15	11	8	9870	3.7
O=C(O)CCc1cccnc1	-5	10	11	6	-1	3206	-0.3
O=S(=O)(c1ccc(NC(=S)NN=Cc2ccc(N3CCOCC3)cc2)cc1)N1CCOCC1	x	-2	x	10	8	x	6.9

The results go on:
mol	BJeLR lethal	Sa ugtP lethal	PrP UTR inh	Mtb hypoxia rep	Mtb hypoxia rep growth	Autofluor counter	RN4220 kill
CC(=NNC(=O)CNC(=O)Cc1ccccc1)c1ccc(Cl)cc1	x	9	x	5	2	x	2.2
CCN(CC)CCC/C(=N\O)C(O)(c1ccccc1)c1ccccc1	-18	x	-17	x	x	4376	x
COc1ccc(CNC(=O)C2CCC(CNS(=O)(=O)c3cccc4cccnc34)CC2)cc1 (stereo not given)	-2	1	-12	7	10	5515	-4.3
CCCCOc1ccc(C(=O)NNC(=O)c2cnccn2)cc1OC	x	-2	8	3	12	2940	1.3
CCOC(=O)c1c(C)[nH]c(C)c1S(=O)(=O)N(C)CC(=O)Nc1ccccc1F	11	-4	2	-5	-2	4346	-0.3
